High-throughput results: PubChem, National Center for Advancing Translational Sciences (NCATS)
A488 autofl = compound fluoresces in the A488 spectral region; compound autofluorescence, A488 spectral region, dye equivalency; hits give high values; max dye equivalency, M; actives 0.1% (n = 59,000); AID 591; active = above 10 nM dye equivalent; inconclusive = 1 to 10 nM; inactive = 1 nM or less; about half of its hits are not listed in these tables;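 note: highest value over a series up to 38 µM; compound alone in buffer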
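Compounds pin-transferred into 100 mM Tris buffer, pH 8.0, incubated 15 min at room temperature, then imaged with 480 nm excitation/540 nm emission filters. Fluorescence converted to Alexa 488 dye-equivalent concentration via an on-plate six-point A488 standard curve.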
A647 fluor = compound fluoresces in the A647 spectral region. Compound fluorescence, A647 channel (570/671 nm), Tris buffer. max dye-equivalent concentration, M. 59,000 tested, under 10 active. AID 592; active means above 1 µM dye equivalent; inconclusive means 0.1 to 1 µM; inactive means 0.1 µM or less;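 note: values scaled relative to a standard on each plate; highest value over a series up to 38 µM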
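Each compound's intrinsic fluorescence at 570 nm excitation and 671 nm emission is measured across its concentration series in 100 mM Tris, pH 8.0, after 15 min at room temperature, and reported relative to an A647 curve.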
TSHR agonist = TSH receptor (human) agonism; P16473; HEK293-CNG-TSHR cells (CNG channel as cAMP sensor), membrane potential dye, cAMP; Potency, µM (doses to about 57.1 µM), for the others: at the top dose activation, hits mostly activators; actives 0.48% (n = 73,000); AID 926; active = well fitted activation curve of enough size with the parental cells flat; inconclusive = any curve in the parental cells; inactive = parental cells flat and receptor cells flat or falling; note: potency is the fitted concentration of half-maximal effect; % of control where 0% means no effect; weak receptor curves with flat parental cells got no call and are not listed
Target sequence (P16473 whole entry, looked up): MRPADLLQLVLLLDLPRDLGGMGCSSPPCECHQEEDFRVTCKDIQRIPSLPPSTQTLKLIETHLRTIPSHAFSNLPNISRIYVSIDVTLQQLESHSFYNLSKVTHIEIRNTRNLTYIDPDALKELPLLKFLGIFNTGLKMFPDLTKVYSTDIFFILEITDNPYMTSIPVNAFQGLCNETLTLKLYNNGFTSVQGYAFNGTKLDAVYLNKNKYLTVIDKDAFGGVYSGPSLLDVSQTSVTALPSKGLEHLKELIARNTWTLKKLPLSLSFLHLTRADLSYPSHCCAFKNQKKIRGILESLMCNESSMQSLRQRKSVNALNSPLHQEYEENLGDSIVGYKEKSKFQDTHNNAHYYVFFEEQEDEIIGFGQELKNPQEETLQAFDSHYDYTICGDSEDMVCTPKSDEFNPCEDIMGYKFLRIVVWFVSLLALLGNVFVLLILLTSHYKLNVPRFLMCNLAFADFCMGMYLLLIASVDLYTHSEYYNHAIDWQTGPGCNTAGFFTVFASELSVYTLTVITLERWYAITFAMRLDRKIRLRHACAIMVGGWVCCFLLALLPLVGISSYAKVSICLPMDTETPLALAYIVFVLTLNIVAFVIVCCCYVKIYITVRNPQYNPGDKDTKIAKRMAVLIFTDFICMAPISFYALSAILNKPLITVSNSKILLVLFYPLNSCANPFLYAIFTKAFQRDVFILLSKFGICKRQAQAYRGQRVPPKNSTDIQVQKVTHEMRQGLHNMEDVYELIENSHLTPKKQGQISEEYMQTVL
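HEK 293 cells stably expressing TSHR and a cAMP-gated CNG channel; parental CNG-only cells as counterscreen. Cells preloaded 60 min with membrane potential dye plus 100 uM RO 20-1724, then compound 30 min; fluorescence read at 590 nm.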
Resorufin autofl = compound fluoresces in the resorufin spectral region. max dye-equivalent concentration, M. actives 0.04% (n = 59,000). AID 588. Compound fluorescence, resorufin region 547/598 nm, buffer; hits give high values; active = above 10 nM dye equivalent; inconclusive = 1 to 10 nM; inactive = 1 nM or less; a few of its hits are not listed in these tables; note: highest value over a series up to 38 µM
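Compounds in 100 mM Tris buffer, pH 8.0, incubated 15 min at room temperature, then read with 547 nm excitation and 598 nm emission filters. Fluorescence was converted to dye-equivalent concentration using an on-plate six-point resorufin standard curve.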
AID923 = qHTS Assay for Allosteric/Competitive Inhibitors of Caspase-1: Spectroscopic Profiling in AFC Spectral Region; compound fluorescence, AFC spectral region (405/520 nm); almost no hit is shown here; Potency, µM (titrated, usually from 57.5 µM), inactives show at the top dose fluorescence increase, usual class: activators; actives 1.1% (n = 75,000); AID 923, 2007; active = well fitted activation curve with a large enough effect; inconclusive = small, poorly fitted or top-dose-only effect;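 note: potency is the fitted concentration of half-maximal effect; 0% is about no effect; scaled to a free AFC standard on each plate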
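Titrations up to 57 uM read every 20 sec for 3 min (405/520 nm) with 50 nM caspase 1 and 5 uM Ac-WEHD-AFC, pH 7.5 HEPES buffer. Fluorescence-vs-time intercept gave baseline, scaled against on-plate AFC standard.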
* hit, by the source's call; i = inactive; ? = inconclusive; . = no result given; [ ] = dose if it differs, or a comment. An excerpt; rates above refer to the full screens.

SMILES | A488 autofl | A647 fluor | TSHR agonist | Resorufin autofl | AID923
C=CCOC(=O)CCP(=O)(CCC(=O)OCC=C)c1ccccc1 | . | . | 6.3% | . | 4.6%
CCCCn1c2c(c3ccccc31)CCc1nonc1-2 | . | . | ? | . | 2.4%
O=C(Nc1cccc(C(=O)N2CCOCC2)c1)NC1CCCCC1 | i | 5.7e-09 | 2.4% | i | 0.0%
CNC(=O)NCCN1CCCC1=O | i | 6.16e-08 | -8.7% | i | -2.5%
COc1cc(C)nc(OCCNC(=O)COc2ccc(Cl)cc2C)n1 | i | 2e-09 | 6.9% | i | 1.0%
C=C(C)CSc1nnc(-c2cc(OC)c(OC)c(OC)c2)n1N | i | 5.7e-09 | 10.5% | i | -0.4%
CCOC(=O)CNC(=O)CSc1nnc(-c2cccc(C)c2)n1-c1ccc(OC)cc1 | i | 1.39e-08 | 11.8% | i | -1.2%
CN=C1SC(CC(=O)Nc2sc(C)c(C)c2C(=O)OC)C(=O)N1C (centres undefined) | i | 1.2e-09 | 2.3%[11.4 µM] | i | 0.7%
O=C(O)Cn1cc2c(n1)CCCCC2 | . | . | -2.8% | . | 4.1%
COc1cc([C@H]2[C@@H]3CCCC[C@]3(O)CCN2CC(=O)Nc2ccc(C)cc2)ccc1O | i | 2.4e-09 | -2.7% | i | 3.9%
COc1ccc(S(=O)(=O)n2ccnc2)c2cccnc12 | i | 7.1e-09 | 10.8% | i | 0.1%
CCCNC(=O)c1cc(-c2ccco2)on1 | i | 1.06e-08 | -0.8% | i | 1.6%
COC(=O)CCC(=O)Nc1ccc(NC(=O)CCC(=O)OC)cc1 | . | . | -1.9% | . | 0.1%
O=c1oc2ccccc2c2c1ncn2C1CCCCC1 | i | 2.43e-08 | -3.9% | i | 1.6%
N#CCSc1nnc(N)s1 | i | 7.9e-09 | -1.1% | i | -0.9%
O=C(c1cnn2ccccc12)N1CCCc2ccccc21 | . | . | ? | . | -2.7%
COc1cccc(-c2noc(-c3cccnc3)n2)c1 | i | 1e-09 | 1.9%[11.4 µM] | i | -0.9%
CCOC(=O)N1CCN(C(=O)Cc2ccc(Cl)cc2)CC1 | . | . | -1.8% | . | 1.2%
NCCN1CCN(CCN)CC1 | i | 3.67e-08 | -8.6% | i | -1.0%
O=C(CP(=O)(c1ccccc1)c1ccccc1)N1CCCCC1 | . | . | 13.9% | . | 0.3%
Cc1noc(C)c1CSc1nc2sc(C)c(C)c2c(=O)n1-c1ccccc1 | i | 3.34e-08 | ? | i | -0.1%
COc1ccc(-n2cnnc2SCC(=O)c2ccc(S(=O)(=O)N3CCOCC3)cc2)cc1 | i | 3.21e-08 | -0.8% | i | 0.3%
O=C(NCc1ccccc1Cl)C1CCN(S(=O)(=O)N2CCCCC2)CC1 | i | 1e-09 | 13.2% | i | -0.7%
O=C1C=C(N2CCN(C3=CC(=O)CCC3)CC2)CCC1 | i | 4.07e-08 | . | i | .
COc1cccc([C@@H]2Oc3ccc(OC)cc3/C(=N/OC[C@@H](C)[C@H](OCc3ccccc3)C(C)C)[C@@H]2O)c1 | . | . | -0.7%[11.4 µM] | . | -1.2%[11.5 µM]
COc1ccccc1OC1=NS(=O)(=O)c2ccccc21 | i | 1e-09 | -12.7% | i | -1.8%
COc1ccc(CNC(=O)Cn2cnc3c(=O)n(C)c(=O)n(C)c32)cc1 | i | 2.62e-08 | -1.6% | i | 0.6%
O=C(Oc1cccc(Oc2ccccc2)c1)N1CCOCC1 | i | 7.08e-08 | 13.2% | i | -1.9%
CCOC(=O)Cn1c(=O)oc2cc(S(=O)(=O)Nc3cc(OCC)ccc3OCC)ccc21 | i | 7.4e-09 | -14.4% | i | 2.1%
CCS(=O)(=O)n1nc(C(=O)N2CCOCC2)nc1N | i | 1.34e-08 | -1.2% | i | -0.7%
O=c1[nH]cnc2c1nc(SCc1ccccc1)n2C1OC(CO)C(O)C1O (centres undefined) | i | 3.75e-08 | 0.1% | i | 1.8%
Cc1ccc(C(=O)c2coc3ccc(OCC(=O)O)cc23)cc1 | i | 1.72e-08 | -4.0% | i | -1.0%
COCCOC(=O)CC1=NC(=O)CS1 | i | 3.7e-09 | -22.0% | i | 0.5%
Cc1ccc(-c2c(C#N)c(N)nc3c2CCCCC3)o1 | i | 4.3e-09 | 13.7% | i | 5.0%
COc1cccc(C=Nc2ccc3c(c2)OCCO3)c1O | i | 1e-09 | -6.5% | i | 0.8%
O=C1NC(=O)C(CC(=O)N(Cc2ccco2)C2(C(=O)NC3CCCC3)CCCCC2)N1 (centres undefined) | i | 6.1e-09 | ? | i | 0.7%
COc1cc2c(C(=O)NCCCOC(C)C)cn(CC(C)C)c(=O)c2cc1OC | i | 2.8e-09 | 1.1%[11.4 µM] | i | -1.3%
CC(=O)Oc1ccc(N2C(=O)CCC2=O)cc1 | i | 2.2e-09 | -0.6% | i | 1.0%
CCOc1ccc(CCNC(=O)CCN2C(=O)COc3ccccc32)cc1OCC | i | 2.3e-09 | ? | i | 0.7%
COc1ccc(CN2CC34C=CC(O3)C(C(=O)O)C4C2=O)cc1 (centres undefined) | . | . | 5.9% | . | -0.1%
COc1ccc(C2=NOC(C(=O)N3CCCc4ccccc43)C2)cc1 (centres undefined) | i | 3.2e-09 | 8.2% | i | 0.6%
O=C(c1ccco1)N1CCN(C(=O)N2c3ccccc3Sc3ccccc32)CC1 | i | 6.4e-09 | . | i | -0.1%
Cc1ccc(C)c(N2CCN(C(=O)c3ccccc3Br)CC2)c1 | i | 5.4e-09 | 12.8% | i | -2.1%
O=C(NCc1ccc(F)cc1)c1cc2n(n1)C(C(F)(F)F)CC(C1CC1)N2 (centres undefined) | . | . | -10.5% | . | -0.7%
CCC(C)(C)n1nnnc1C(c1cccs1)N1CCN(c2nc3ccccc3s2)CC1 (centres undefined) | i | 1e-09 | ? | i | 5.5%
CC(C)CC(c1nnnn1Cc1ccco1)N1CCN(C2CCCC2)CC1 (centres undefined) | i | 3.9e-09 | ? | i | 0.2%
O=C(C(Cc1ccccc1)n1cccc1)N1CCN(C2CCCCC2)CC1 (centres undefined) | . | . | ? | . | 3.0%
Oc1c(Cl)cc(Cl)c(Cl)c1Cl | . | . | ? | . | -2.4%
COc1ccccc1-c1cc(C(F)(F)F)nc(NCc2ccco2)n1 | i | 3.1e-08 | ? | i | -1.6%
Clc1ccccc1-c1nccc(-n2ccnc2)n1 | i | 2.8e-09 | 5.4% | i | -2.0%
COc1cccc(C(CC(=O)NCc2ccco2)NS(=O)(=O)c2ccc(C)cc2)c1OC (centres undefined) | i | 5.7e-09 | 11.3% | i | -0.5%
CCCCNC(=O)Nc1cc(C(F)(F)F)c[nH]c1=O | i | 1.39e-08 | -3.3% | i | -1.7%
CC(=O)NC(c1ccccc1)c1cccnc1 (centres undefined) | . | . | 0.2%[11.4 µM] | . | -2.3%
CCOC(=O)Nc1ccc2c(c1)N(C(=O)CN1CCN3CCCC3C1)c1ccccc1CC2 (centres undefined) | i | 2.24e-08 | 9.4% | i | 4.3%
O=C(NCc1ccccc1)c1cc(-n2cnnc2)ccc1Cl | i | 3.21e-08 | 0.6% | i | -1.5%
CSc1nc2[nH]c3c(c2c2nncn12)CC(C)(C)OC3 | i | 1.1e-08 | . | i | .
C/C(Cl)=C/Cn1c(=O)c2c(nc(Br)n2Cc2ccccc2)n(C)c1=O | i | 1e-09 | ? | i | 0.6%
CC(=O)Cc1nsc(NC(=O)c2ccc(-c3cc(C(F)(F)F)ccc3Cl)o2)n1 | i | 1e-09 | 25.5% | i | -2.0%
CCn1c(Cc2c(C)[nH]c3ccccc23)nnc1SCC(N)=O | i | 1e-09 | 0.0% | i | 0.1%
COC(=O)c1[nH]c2ccccc2c1NC(=O)CN1CCC(C(N)=O)(N2CCCCC2)CC1 | i | 3.46e-08 | -1.4% | i | 1.0%

The list goes on:
SMILES | A488 autofl | A647 fluor | TSHR agonist | Resorufin autofl | AID923
COC(=O)C(NS(C)(=O)=O)(c1c(C)[nH]c2ccccc12)C(F)(F)F (centres undefined) | i | 2.22e-08 | 0.0%[11.4 µM] | i | -0.3%
COc1cccc(C2CC(c3ccccc3OC)n3nc(N)nc3N2)c1 (centres undefined) | . | . | 4.7% | . | 0.5%
COC(=O)c1c(N)c(C#N)c2n1CCCCC2 | i | 1.82e-08 | 0.7% | i | -0.7%
CC1(C)Cc2c(sc3ncn4nc(CCC(=O)O)c(=O)nc4c23)CO1 | i | 4.6e-08 | -2.7% | i | -1.1%
CCCCCc1nc2ccccc2c(=O)n1N | i | 2.1e-09 | -4.2% | i | -0.3%
C/C(=C\C(=O)c1ccc(C)cc1)Nc1cccc(O)c1 | . | . | 4.0% | . | 0.0%
COc1ccc(-c2cc(C(=O)Nc3cccc(C(C)=O)c3)no2)cc1 | i | 1.51e-08 | -2.5% | i | 1.3%
CCCS(=O)(=O)N1CCCC(C(=O)N2CCN(c3ccccn3)CC2)C1 (centres undefined) | i | 7.7e-09 | -1.4% | i | 1.0%
Fc1ccccc1CSc1ncnc2c1oc1ccccc12 | i | 2.67e-08 | ? | i | 0.4%
O=C(NCCCN1CCCC1=O)c1cc(=O)c2ccccc2o1 | i | 1e-09 | -1.3% | i | -2.3%
Cc1cc2c(N)cccc2nn1 | . | . | -10.3%[11.4 µM] | . | 2.9%
COc1ccc(C(=O)N2CCc3cc(OC)c(OC)cc3C2)cc1OC | i | 1.4e-09 | 1.3% | i | -0.2%
COc1ccc(CN(Cc2nc3ccccc3c(=O)[nH]2)C(=O)C(C)(C)C)cc1 | i | 2.7e-09 | 10.6% | i | 0.0%
CC1(C)CC(NC(=O)C2CCCCC2C(=O)O)CC(C)(C)N1 (centres undefined) | i | 3.6e-09 | -6.4% | i | 0.1%
O=C(NC1(C(=O)O)CCCC1)c1ccccc1 | i | 4.09e-08 | -0.5%[11.4 µM] | i | 3.4%[11.5 µM]
CCOC(=O)C1=C(N)n2c(s/c(=C\c3cccnc3)c2=O)=C(C(=O)OCC)C1c1cccnc1 (centres undefined) | i | 9.8e-09 | ? | i | 0.4%
Cc1ccccc1NC(=O)CSc1nc(N)c(C#N)cc1C#N | i | 1e-09 | ? | i | 1.2%
CC(C)n1c(CCC(=O)O)ccc1-c1ccccc1 | . | . | 1.0% | . | 2.2%
CCCCOc1cccc(-c2nnc(N)s2)c1 | i | 3e-09 | . | i | .
CCOCCCNCc1cccc(OC)c1 | i | 1e-09 | -1.4% | i | 0.7%
Cc1ccccc1OCc1nc(-c2ccc(-n3cccc3)cc2)no1 | . | . | ? | . | 1.4%
CC(C)C(C(=O)Nc1ccccc1)N1C(=O)c2ccccc2C1=O (centres undefined) | . | . | 4.0% | . | 5.2%
Cn1c(CNc2nc3ccccc3n2C)nc2ccccc21 | . | . | 10.3% | . | -3.9%
O=C(Cc1ccccc1)Nc1cccc(-c2nnc(-c3ccco3)o2)c1 | i | 1e-09 | . | i | .
O=C(Cn1cnc2c(cnn2-c2ccc(F)cc2)c1=O)NCC1CCCO1 (centres undefined) | i | 1.5e-09 | 7.3% | i | -0.2%
Cc1ccc(Nc2nc(N)nc(CN3CCCCCC3)n2)cc1 | i | 1e-09 | -3.0% | i | 3.5%
Cc1nc(NCCN)c(C#N)c2c1COC(C)(C)C2 | i | 1.74e-08 | . | i | .

Pulled one by one from above:
SMILES | A488 autofl | A647 fluor | TSHR agonist | Resorufin autofl | AID923
Cn1c(CNc2nc3ccccc3n2C)nc2ccccc21 | . | . | 10.3% | . | -3.9%
CCOC(=O)C1=C(N)n2c(s/c(=C\c3cccnc3)c2=O)=C(C(=O)OCC)C1c1cccnc1 (centres undefined) | i | 9.8e-09 | ? | i | 0.4%
Cc1ccc(Nc2nc(N)nc(CN3CCCCCC3)n2)cc1 | i | 1e-09 | -3.0% | i | 3.5%
